NPYLR7 ag: mosquito NPYLR7 agonism; HEK293T NPYLR7/Galpha15, GCaMP6s calcium fluorescence; activation, % at 10 µM; 270,000 tested, 0.15% active; AID 1259423; in the data active = activation above about 40%;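 also: 0% = vehicle and 100% = reference agonist at the receptor; some compounds past the cut are filed as inactive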
NPYLR7 ag max-min: further read-out of NPYLR7 ag, marked with its call; activation, %; measured here: Max-Min RFU normalised activation; some inactives read as strong as hits;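 span of the calcium signal over five minutes; 0% = vehicle and 100% = native peptide agonist; compound fluorescence can raise it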
* = called active by the depositor; & = joins results of further samples.

SMILES | NPYLR7 ag | NPYLR7 ag max-min
O=C(CNC(=O)c1ccc(Cl)c(Cl)c1)Nc1nc2cc3c(cc2s1)OCCO3 | 3.3 | 2.1
Cn1c(=O)c2cc(NC(=O)c3ccccc3Cl)c(=O)oc2n(C)c1=O | 3.3 | 0.4
CC(NC(=O)Cc1csc2nc(-c3ccccc3)cn12)c1ccc(S(C)(=O)=O)cc1 (stereo unspecified) | 3.2 | 2.7
CCCCNc1ncc2cc3ccccc3nc2c1C#N | -1.5 | -0.7
OCC#Cc1csc(CN2CCCN(C3CCCCC3)CC2)c1 | -3.2 | -4.3
O=C(NCC1CCN(Cc2ccc3nonc3c2)C1)c1ccccn1 (stereo unspecified) | 18.6 | 15.1
CCn1c(C2CCCNC2)nn(CCC(=O)N2CCCC2)c1=O (stereo unspecified) | -1.0 | -3.2
CC(C)(C)c1ccc(COn2c(=O)c(-c3ccc(F)cc3)[n+]([O-])c3ccccc32)cc1 | -3.9 | -7.5
CC(C)CC(C)(NCCOc1ccccc1F)C(N)=O (stereo unspecified) | -8.0 | -7.2
CC(C)(CO)C(CN)c1ccccc1 (stereo unspecified) | -4.1 | -3.9
COc1cc2c(cc1OC)C(c1ccccc1Cl)N(C(=O)Nc1cc(F)ccc1F)CC2 (stereo unspecified) | 8.2 | 4.5
c1ccc2c3c([nH]c2c1)[C@H]1C2CCC([C@@H]4CCCN[C@H]24)N1CC3 (stereo partly specified) | -3.7 | -9.1
COc1ccccc1CCNC(=O)CN1CN(c2ccccc2)C2(CCN(C(=O)c3cccc([N+](=O)[O-])c3)CC2)C1=O | 8.4 | 18.1
O=C(c1ccc(Cc2ccccc2)o1)N1CCC2(CC1)OCCCO2 | -3.1 | -5.6
CCc1c(C)nc(-n2nc(C)cc2NC(=O)c2cccc(C)c2)[nH]c1=O | 9.3 | 3.8
O=[N+]([O-])c1ccccc1Oc1ncccc1[N+](=O)[O-] | 4.1 | 11.7
CCOc1ccc(OCCOc2ccc([N+](=O)[O-])cc2)cc1 | 13.3 | 4.7
O=C(NCC1CCCO1)c1ccc(-c2cc(-c3cccc4ccccc34)[nH]n2)cc1 (stereo unspecified) | -3.6 | 3.9
COc1ccc(-n2c(C)nnc2SCc2ccc(C(=O)NCc3ccc(F)cc3)cc2)cc1 | -9.7 | 3.6
N#Cc1c(NC(=O)CCCCl)sc2c1CCCCC2 | -1.6 | -6.8
CN(C)CC(C)(C)CN1C[C@H](COCc2ccccc2)Oc2ncccc2S1(=O)=O | 9.0 | 23.9
N#CCSc1ccc(S(=O)(=O)N2CCCCC2)cn1 | 20.5 | 26.1
COc1ccccc1N=C1SC(C(=O)Nc2ccc(F)cc2)CC(=O)N1C (stereo unspecified) | 2.0 | -1.9
CCCCCCOC(=O)C1=C(C)NC(=O)NC1c1ccccc1F (stereo unspecified) | -0.2 | -5.2
O=C(O)CC1SC(=NN=Cc2ccc(Br)o2)NC1=O (stereo unspecified) | -14.2 | -20.5
(continued)
SMILES | NPYLR7 ag | NPYLR7 ag max-min
NC(=O)CC1CCCN(C(=O)NCCCn2ccc3ccccc32)C1 (stereo unspecified) | -1.1 | 10.4
Cc1cccn2c(=O)cc(OCC(=O)Nc3ccc(Cl)cc3Cl)nc12 | -2.9 | -1.1
CCCCn1c(C)cn2c3c(=O)n(Cc4ccc(C)cc4)c(=O)n(C)c3nc12 | 9.0 | 13.7
Cc1ccc2[nH]c(O)c(N=NC(=O)c3cccc(O)c3)c2c1 | 1.9 | -4.9
CC(c1ccc(Cl)cc1)N(C)C(=O)Nc1cccn(CC(F)(F)F)c1=O (stereo unspecified) | -5.7 | -8.4
COc1cc(C=C2N=C(c3ccc(F)cc3)OC2=O)cc(OC)c1OCC(N)=O | 3.1 | 1.7
CC(C)N(C)C(=O)C1CCCN(C(=S)NC2CC3CCC2C3)C1 (stereo unspecified) | 1.6 | 2.0
Cc1cc(O)c(C2OC(=O)c3ccccc32)c(=O)n1CCc1ccccc1 (stereo unspecified) | -2.3 | -4.3
O=C(OCc1ccsc1)C1CCN(c2cnccn2)CC1 | 11.1 | 7.9
CCN(CC)C(=O)COC1CN(CCc2ccccc2)C(=O)CN(C(=O)Cc2ccc(N3CCNC3=O)cc2)C1 (stereo unspecified) | -0.4 | -2.9
COc1c[nH]c(C(=O)Nc2cc(C)ccc2C)cc1=O | -1.8 | -1.3
CN1CCC(C(=O)NN)CC1 | 15.9 | 7.8
CCOC(=O)CSc1nnc(NC(=O)CC)s1 | 0.8 | -1.2
Cc1cc(C)nc(CCNC(=O)CC2C(=O)NCCN2Cc2ccccc2)n1 (stereo unspecified) | 15.4 | 1.6
Cc1ccccc1NC(=O)N1CCc2ccccc2C1c1ccccc1Cl (stereo unspecified) | 18.9 | 3.7
Cc1cccc(NC(=O)C23CCC(=O)N2c2ccccc2C(=O)N3C)c1C (stereo unspecified) | 3.7 | 5.0
CCOC(=O)N1CCN(C(c2ccccc2Cl)C2Sc3nc(-c4ccco4)nn3C2=O)CC1 (stereo unspecified) | -12.0 | -14.3
COc1ccc(N2CCN(C3CCCN(Cc4nc5c(s4)CCCC5)C3)CC2)cc1 (stereo unspecified) | 0.6 | -3.1
O=C(c1cc2ccccc2o1)N1CCN(c2ncnc3c2nnn3-c2ccccc2)CC1 | -2.4 | -10.9
CCCCn1c(=O)c2c(nc3n2CC(C)CN3c2ccc(Br)cc2)n(C)c1=O (stereo unspecified) | 3.1 | 2.7
CN(C)CCN(C(=O)c1ccc([N+](=O)[O-])o1)c1nc2ccccc2s1 | -4.3 | -10.4
COc1cc(-c2ccnc(N3CCN(C(=O)C(F)(F)C(F)F)CC3)n2)cc(OC)c1OC | 7.2 | 0.9
O=C(CCc1nnc(-c2ccc3c(c2)OCO3)o1)N1CCCC1c1ccc(F)cc1 (stereo unspecified) | 18.9 | -0.2
O=C(NCCc1c(F)cccc1F)N1CCN(Cc2cscn2)CC1 | -0.5 | 0.7
CCOc1ccccc1C(=O)N1[C@@H](c2ccco2)[C@@H](CO)C[C@]12CCCCN(CCO)C2=O | 5.5 | 18.8
Later entries
SMILES | NPYLR7 ag | NPYLR7 ag max-min
Cc1ccccc1Cn1ccc(NC(=O)c2cnn3c(C(F)F)cc(C4CC4)nc23)n1 | 2.0 | -6.2
CC(C)COc1ccc(C(C)NC(=O)C2CN(C)CCO2)cc1 (stereo unspecified) | 3.8 | -0.1
Cc1ccc(S(=O)(=O)N2CCOCC2)cc1C(=O)Nc1ccccn1 | -15.4 | -23.9
O=C(Nc1ccc(Cl)cc1Cl)c1cnn2c(C(F)(F)F)cc(-c3cccs3)nc12 | 8.9 | 6.4
Cc1ccccc1OCc1nc(CN(CCN2CCOCC2)C(=O)c2ccc3c(c2)OCO3)cs1 | 3.3 | 3.5
O=C(NCCCN1CCOCC1)C(C1CCCC1)N1CCN(C(=O)Nc2ccccc2)CC1 (stereo unspecified) | 24.3 | 26.2
CCOC(=O)N1CCC(S(=O)(=O)Oc2ccc(F)c(F)c2)CC1 | 4.9 | 3.2
O=S(=O)(NNc1ncccn1)c1ccc2c(c1)CCC2 | 12.5 | 7.8
Cc1cc(CSc2nc3sc4c(c3c(=O)n2C)CCC4)on1 | 2.0 | 0.4
COC(=O)n1c(=O)oc2cc(Cl)ccc21 | -0.6 | -2.2
COc1ccc(-c2nc3scc(CCNS(=O)(=O)c4ccc(C)c(C)c4)n3n2)cc1 | -16.8 | -14.3
CCCCN(CC(=O)N1CC(=O)N(c2ccc(Cl)cc2)C1)C(=O)/C=C/c1ccccc1 | 5.9 | 11.1
Cc1ccccc1NC(=O)COC(=O)c1ccc2ncsc2c1 | 4.8 | 1.9
CCC(=O)Nc1ccc(-c2c(-c3cccc(C)c3)nn(-c3ccc(F)cc3)c2OC(C)=O)cc1 | 0.2 | 8.5
O=C1O[C@@H]2CN(S(=O)(=O)N3CCCC3)C[C@@H]2N1CCCc1ccc(F)cc1 | 4.2 | 1.6
C=CCn1c(SCc2cccc(C#N)c2)nnc1-c1ccccc1C | 22.9 | 19.4
COc1ccccc1Nc1nnc(Cc2ccc(C)cc2)c(=O)[nH]1 | 10.5 | 3.8
O=S(=O)(c1cccc(Cl)c1)N1CCCn2ncnc21 | 18.2 | 16.5
O=C(NCCSCc1ccco1)c1ccc([N+](=O)[O-])s1 | -0.7 | -4.2
COc1cc(C=C2N=C(c3ccc(F)cc3)OC2=O)cc(Cl)c1OCC(N)=O | 1.2 | 8.8
Cc1c(C(=O)NCc2ccc(C#N)cc2)sc(=O)n1Cc1ccccc1C(F)(F)F | 11.1 | 9.6
CC(C)NC(=O)CC1(C(=O)Nc2ccc(-c3ccccc3)cc2)CCCC1 | 12.5 | 13.0
CCOC(=O)COc1ccccc1/C=C1\SC(=S)NC1=O | 4.0 | -1.4
CCC(C(=O)N(CC(=O)N(CCc1c[nH]c2ccccc12)Cc1ccc(C)cc1)C1CC1)c1ccccc1 (stereo unspecified) | 22.5 | 22.2
Cc1nnc(SCC(=O)Nc2sc3c(c2C(N)=O)CCC3)[nH]c1=O | -6.0 | -10.1

Three records picked at random from those above, as already listed:
SMILES | NPYLR7 ag | NPYLR7 ag max-min
OCC#Cc1csc(CN2CCCN(C3CCCCC3)CC2)c1 | -3.2 | -4.3
CCN(CC)C(=O)COC1CN(CCc2ccccc2)C(=O)CN(C(=O)Cc2ccc(N3CCNC3=O)cc2)C1 (stereo unspecified) | -0.4 | -2.9
COc1ccccc1N=C1SC(C(=O)Nc2ccc(F)cc2)CC(=O)N1C (stereo unspecified) | 2.0 | -1.9

Other records.
SMILES | NPYLR7 ag | NPYLR7 ag max-min
CCCCOC(=O)CSc1n[nH]c(=O)[nH]c1=O | 0.0 | -3.1
Cc1c[nH]c(=O)n(CCCN2CCN(c3ccccc3OCC(F)(F)F)CC2)c1=O | -6.2 | -10.7
Cn1c(=O)n(C)c2cc(CNc3ccc(N4CCOCC4)c(C(=O)O)c3)ccc21 | -8.8 | -18.1
O=[N+]([O-])c1ccc(N2CCN(S(=O)(=O)c3cccs3)CC2)cc1 | 21.5 | 11.0
Cc1c(-c2cc(C(=O)N3CCC3c3ccc(F)cc3)[nH]n2)cnn1C (stereo unspecified) | 7.3 | 3.6
CC(=O)c1sc(NC(=O)c2ccc(N3CCCC3=O)cc2)nc1C | 14.4 | 6.8
Cc1ccn2c(NC(=O)COc3ccccc3)c(-c3cccc(F)c3)nc2c1 | -0.6 | 1.0
O=S(=O)(c1cccs1)n1cnc2ccccc21 | 16.5 | 5.6
CCc1ncc(C(=O)N2CCC(n3cc(-c4ccccn4)nn3)CC2)cn1 | 3.5 | -0.8
Cc1cc(C)nc(C(C#N)C(=O)Cc2csc(-c3ccoc3)n2)n1 (stereo unspecified) | -1.2 | -6.3
Cc1cc(Cl)ccc1OC(C)C(=O)NNc1ncnc2nc[nH]c12 (stereo unspecified) | -1.1 | 1.0
Cc1ccc(C#N)cc1NC(=O)NC(C)C(C)C (stereo unspecified) | 10.5 | 8.0
CCCc1nc(N2CCN(C(=O)c3ccc(Cl)cc3Cl)CC2)c2cnn(-c3ccccc3)c2n1 | 9.2 | 8.4
Cc1ccc(F)cc1NC(=O)C(C)N1CCC(CN2CCCCC2)C1 (stereo unspecified) | -1.4 | -4.2
Brc1ccc2c(c1)c1nc3ccccc3nc1n2CCN1CCOCC1 | -2.2&3.8 | -4.5&3.3
Cc1ccc(C(NC(=O)c2ccc(C#N)cc2)C2CC2)cc1 (stereo unspecified) | -2.4 | -1.0
Cc1ccc(S(=O)(=O)N(C(=O)c2ccncc2)c2ccc(OC(=O)c3ccncc3)cc2)c(C)c1 | 2.8 | 0.2
CCC(C(=O)NC1CC1)n1c(=O)n(-c2cccc(OC)c2)c(=O)c2ccc(Cl)cc21 (stereo unspecified) | -9.6 | 3.3
O=C(CN1C(=O)C(CCc2ccccc2)ON=C1c1cnccn1)c1ccccc1F (stereo unspecified) | 9.9 | 3.2
Cc1cc(N2CCC(Cc3ccccc3)(C(=O)O)CC2)nc2ccccc12 | -3.6 | 0.6
CCOC(=O)C1=C(C)NC2=C(C(=O)CC(c3ccccc3)C2)C1c1cc(OC)ccc1OC (stereo unspecified) | -11.3 | -20.0
CCNC(=O)Cn1c(CO)cnc1SCC(=O)Nc1ccc(C)cc1C | 30.1 | 25.1
CCOC(=O)c1cc(-c2cccc(NC(=O)c3ccc4ccccc4n3)c2)n(-c2ccc(F)cc2)n1 | 24.9 | 15.8
CC(C)N(C)c1onc(-c2ccccc2)c1CN(Cc1ccco1)C(=O)C1CC1 | 3.8 | 2.8
N#Cc1cccc(NC(=O)c2cn3cc(C(F)(F)F)cc(Cl)c3n2)c1 | 2.4 | 6.3
Later entries
SMILES | NPYLR7 ag | NPYLR7 ag max-min
COc1ccc(OC)c(NC(=O)N2CCc3ccccc3C2c2ccc(F)cc2)c1 (stereo unspecified) | 13.9 | 7.6
C=CCn1cc(CN[C@H](CO)c2ccccc2)c(C)n1 | -6.7 | -6.4
O=C(CCCC(=O)Oc1ccoc(=O)c1)Oc1ccoc(=O)c1 | 8.2 | 5.1
CCc1ccccc1NC(=O)NCCNc1cc(-n2cccn2)nc(C)n1 | -4.9 | -10.6
CC(C)n1c(N/N=C\c2ccc(F)cc2)nc2c1c(=O)n(C)c(=O)n2C | -4.0 | -6.9
CCOC(=O)c1cnn2cc(CN3CCN(C(C)C)C(CC)C3)cnc12 (stereo unspecified) | 19.8 | 10.4
CC(=O)OCC(=O)[C@@]1(O)[C@@H](C)CC2C3CCC4=CC(=O)C=C[C@]4(C)[C@@]3(F)[C@@H](O)C[C@@]21C (stereo partly specified) | -5.6 | -9.8

Among those listed so far, these have a nitro group on carbon:
SMILES | NPYLR7 ag | NPYLR7 ag max-min
COc1ccccc1CCNC(=O)CN1CN(c2ccccc2)C2(CCN(C(=O)c3cccc([N+](=O)[O-])c3)CC2)C1=O | 8.4 | 18.1
O=[N+]([O-])c1ccccc1Oc1ncccc1[N+](=O)[O-] | 4.1 | 11.7
CCOc1ccc(OCCOc2ccc([N+](=O)[O-])cc2)cc1 | 13.3 | 4.7
CN(C)CCN(C(=O)c1ccc([N+](=O)[O-])o1)c1nc2ccccc2s1 | -4.3 | -10.4
O=C(NCCSCc1ccco1)c1ccc([N+](=O)[O-])s1 | -0.7 | -4.2
O=[N+]([O-])c1ccc(N2CCN(S(=O)(=O)c3cccs3)CC2)cc1 | 21.5 | 11.0

From PubChem BioAssay

The list is partial, so the mix of outcomes need not match the whole.
